# Bioassay records as filed in PubChem.
# Ran importin: RanGTP/importin-beta interaction disruptors – biochemical, CFP-Ran/YFP-importin-beta FRET, RCC1, cell-free, primary screen (AID 434961); CFP-Ran/YFP-importin-beta FRET, cell-free; hits give high values; inhibition, %; hit rate 0.2% among 7,700;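 active = more than half of the replicate wells above 15% inhibition; inconclusive = exactly half above it; inactive = fewer than half above it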;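 also: 0% = DMSO wells and 100% inhibition = RanGDP control wells on each plate; stock of unstated strength diluted about 400-fold; mean of two wells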
# An asterisk follows results filed as active; ? = inconclusive. Some of the compounds tested. The share of hits here may be higher or lower than overall.
nr	molecule	Ran importin
1	C[C@@H]1CCCCO[C@@H](CN(C)C(=O)Nc2ccccc2)[C@H](C)CN([C@@H](C)CO)C(=O)c2cc(N(C)C)ccc2O1	-2.6
2	C[C@@H]1CN([C@@H](C)CO)C(=O)c2cccc(NC(=O)Nc3ccc(C(F)(F)F)cc3)c2O[C@@H]1CN(C)CC1CC1	-2.2
3	CCCC(O)C#Cc1cnc2c(c1)C(=O)N([C@H](C)CO)C[C@H](C)[C@H](CN(C)S(=O)(=O)c1cn(C)cn1)O2 (stereo not given in full)	2.1
4	COc1ccc(CN(C)C[C@@H]2Oc3c(NC(=O)c4cc(C)nn4C)cccc3C(=O)N([C@H](C)CO)C[C@H]2C)cc1	1.1
5	C[C@H](CO)N1C[C@H](C)[C@H](CN(C)Cc2ccncc2)OCCCC[C@H](C)Oc2ccc(N(C)C)cc2C1=O	0.3
6	C[C@@H]1CCCCO[C@H](CN(C)C(=O)C2CCCCC2)[C@@H](C)CN([C@@H](C)CO)C(=O)c2cc(NS(=O)(=O)c3cccs3)ccc2O1	?
7	C[C@@H]1CN([C@@H](C)CO)C(=O)c2cc(NC(=O)Nc3ccccc3)ccc2O[C@@H](C)CCCCO[C@H]1CN(C)S(=O)(=O)c1ccccc1	7.6
8	CNC[C@H]1OCCCC[C@@H](C)Oc2ccc(NC(=O)Nc3ccccc3)cc2C(=O)N([C@H](C)CO)C[C@H]1C	-4.0
9	CNC[C@H]1Oc2ccc(NC(=O)CCC(F)(F)F)cc2C(=O)N([C@H](C)CO)C[C@H]1C	-3.6
10	C[C@@H]1CN([C@@H](C)CO)C(=O)CCCn2nncc2CO[C@H]1CN(C)C(=O)Nc1ccc2c(c1)OCCO2	-1.0

# Reprinted from the part before: 6 compounds; new compounds follow.
nr	molecule	Ran importin
5	C[C@H](CO)N1C[C@H](C)[C@H](CN(C)Cc2ccncc2)OCCCC[C@H](C)Oc2ccc(N(C)C)cc2C1=O	0.3
6	C[C@@H]1CCCCO[C@H](CN(C)C(=O)C2CCCCC2)[C@@H](C)CN([C@@H](C)CO)C(=O)c2cc(NS(=O)(=O)c3cccs3)ccc2O1	?
7	C[C@@H]1CN([C@@H](C)CO)C(=O)c2cc(NC(=O)Nc3ccccc3)ccc2O[C@@H](C)CCCCO[C@H]1CN(C)S(=O)(=O)c1ccccc1	7.6
8	CNC[C@H]1OCCCC[C@@H](C)Oc2ccc(NC(=O)Nc3ccccc3)cc2C(=O)N([C@H](C)CO)C[C@H]1C	-4.0
9	CNC[C@H]1Oc2ccc(NC(=O)CCC(F)(F)F)cc2C(=O)N([C@H](C)CO)C[C@H]1C	-3.6
10	C[C@@H]1CN([C@@H](C)CO)C(=O)CCCn2nncc2CO[C@H]1CN(C)C(=O)Nc1ccc2c(c1)OCCO2	-1.0
11	C[C@H](CO)N1C[C@H](C)[C@@H](CN(C)C)Oc2c(NC(=O)C3CCOCC3)cccc2C1=O	-0.3
12	Cc1noc(C)c1NC(=O)Nc1cccc2c1O[C@@H](CN(C)C(=O)Nc1c(C)noc1C)[C@H](C)CN([C@H](C)CO)C2=O	-1.2
13	C[C@@H]1CN([C@H](C)CO)C(=O)c2cccc(NS(=O)(=O)c3ccc(Cl)cc3)c2O[C@@H]1CN(C)CC1CC1	8.4
14	C[C@@H]1CN([C@H](C)CO)C(=O)c2cccc(NC(=O)Nc3cccc4ccccc34)c2O[C@H]1CN(C)C(=O)Nc1ccc(C(F)(F)F)cc1	-3.1
15	CNC[C@H]1Oc2ccc(NC(=O)Nc3ccccc3)cc2CC(=O)N([C@H](C)CO)C[C@H]1C	-2.1
16	C[C@@H]1CN([C@@H](C)CO)C(=O)c2cc(NC(=O)c3ccncc3)ccc2O[C@@H](C)CCCCO[C@H]1CN(C)S(=O)(=O)c1ccc(F)cc1	-6.1
17	C[C@H](CO)N1C[C@H](C)[C@H](CN(C)CC2CC2)Oc2ccc(NC(=O)Nc3ccccc3)cc2CC1=O	-5.9
18	C[C@@H]1CCCCO[C@@H](CN(C)C(=O)c2ccccc2)[C@@H](C)CN([C@@H](C)CO)C(=O)c2cc(NS(=O)(=O)c3cn(C)cn3)ccc2O1	-0.5
19	C[C@@H]1CN([C@@H](C)CO)C(=O)c2cccc(NS(=O)(=O)c3ccccc3)c2O[C@@H]1CN(C)C(=O)Nc1ccc2c(c1)OCO2	0.6
20	C[C@@H]1CN([C@H](C)CO)C(=O)Cc2cc(NC(=O)Cc3ccccc3)ccc2O[C@H]1CN(C)S(=O)(=O)c1cn(C)cn1	?

# Four entries already listed, arranged by the value under Ran importin, falling:
nr	molecule	Ran importin
4	COc1ccc(CN(C)C[C@@H]2Oc3c(NC(=O)c4cc(C)nn4C)cccc3C(=O)N([C@H](C)CO)C[C@H]2C)cc1	1.1
11	C[C@H](CO)N1C[C@H](C)[C@@H](CN(C)C)Oc2c(NC(=O)C3CCOCC3)cccc2C1=O	-0.3
15	CNC[C@H]1Oc2ccc(NC(=O)Nc3ccccc3)cc2CC(=O)N([C@H](C)CO)C[C@H]1C	-2.1
14	C[C@@H]1CN([C@H](C)CO)C(=O)c2cccc(NC(=O)Nc3cccc4ccccc34)c2O[C@H]1CN(C)C(=O)Nc1ccc(C(F)(F)F)cc1	-3.1

# Next section.
(21) CNC[C@H]1Oc2c(NC(=O)c3ccc(-c4nccs4)cc3)cccc2C(=O)N([C@@H](C)CO)C[C@@H]1C
- Ran importin: 0.3
(22) Cc1noc(C)c1NC(=O)Nc1ccc2c(c1)C(=O)N([C@@H](C)CO)C[C@@H](C)[C@H](CN(C)C(=O)Nc1c(C)noc1C)OCCCC[C@@H](C)O2
- Ran importin: ?
(23) C[C@@H]1CN([C@H](C)CO)C(=O)c2cccc(NS(=O)(=O)c3ccc(Cl)cc3)c2O[C@@H]1CN(C)S(=O)(=O)c1cccs1
- Ran importin: -2.9
(24) Cc1noc(C)c1NC(=O)Nc1ccc2c(c1)C(=O)N([C@H](C)CO)C[C@H](C)[C@H](CN(C)CC1CC1)O2
- Ran importin: 2.8
